Sfp inh: qHTS Assay for Inhibitors of Bacillus subtilis Sfp phosphopantetheinyl transferase (PPTase) | Biochemical Sfp PPTase activity, qHTS | Potency, µM, for inactives: max response, negative = inhibition, usual class: inhibitors | hit rate 3.5% among 310,000; active means well fitted inhibition curve with a large enough effect; inconclusive means small, poorly fitted or top-dose-only effect, or another doubt; inactive means no such curve, though single readings can be large or run the other way;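 further: the enzyme is Sfp with the accession as filed and its product quenches rhodamine fluorescence; potency means the concentration at half of the fitted maximal effect; 0% = enzyme reaction without inhibitor and -100% = no enzyme wells; top concentration of the series not given in the record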
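Fluorescence-quenching assay: 15 nM Sfp-PPTase preincubated 15 min at room temperature with compound, then 5 uM rhodamine-CoA and 12.5 uM BHQ-2-labelled YbbR peptide added. Fluorescence (ex 525/em 598 nm) read at start and after 30 min; difference gives rate.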
Menin-MLL FL inh: qHTS Assay for Inhibitors Targeting the Menin-MLL Interaction in MLL Related Leukemias: Competition With Fluorescein Labeled MLL-derived Peptide | AID 1766, 2009 | Fluorescence polarization, fluorescein-MLL peptide displacement from menin | FP activity change, % at 61.4 µM | 290,000 tested, under 10 active; inconclusive = falling polarisation curve, or a change in total fluorescence; inactive = total fluorescence flat and polarisation flat or rising; no compound was filed as active; the % refers to the polarisation; negative = inhibition;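 further: % of control where 0% means no effect; inhibitors lower the polarisation; unlabelled MLL peptide was the positive control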
ClpP mod: qHTS Assay for Activators of ClpP. ATP-dependent Clp protease proteolytic subunit (Bacillus subtilis (strain 168)), P80244. purified B. subtilis ClpP, FRET peptide cleavage, 20 min. Potency, µM (titrated, usually from 57.5 µM), for the others: at the top dose activity change, negative = active. hit rate 1.9% among 340,000. AID 651965, 2013; active = well fitted falling curve with a large enough effect; inconclusive = small, poorly fitted or top-dose-only effect; inactive = no such curve, though single readings can be large or run the other way; further: potency means the concentration at half of the fitted maximal effect; the source files actives as falling curves though it sought activators and does not explain the sign; nearly all actives have a fitted effect of over 65% in size; many hits overshoot -100%
Target sequence (P80244 whole entry, looked up): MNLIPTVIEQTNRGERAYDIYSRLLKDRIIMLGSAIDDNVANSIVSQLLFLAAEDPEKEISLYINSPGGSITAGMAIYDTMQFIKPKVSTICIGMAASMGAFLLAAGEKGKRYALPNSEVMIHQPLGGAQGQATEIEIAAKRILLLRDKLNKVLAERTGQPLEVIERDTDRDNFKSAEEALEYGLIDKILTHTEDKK
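Purified B. subtilis ClpP, 10 microg/mL final in Tris/HCl pH8 with KCl, BSA, glycerol and Tween-20, cleaved an Abz/nitrotyrosine-quenched decapeptide. Fluorescence (ex 320, em 430) was read at 0 and 20 min at room temperature. Delta was normalized to 5.8 microM ADEP and DMSO/no-enzyme controls.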
gsp ag: qHTS for Agonist of gsp, the Etiologic Mutation Responsible for Fibrous Dysplasia/McCune-Albright Syndrome: qHTS; gsp mutant cells, cAMP HTRF, 30 min; control for the full effect not named in the record; Potency, µM (highest dose often 76.9 µM), for the others: top-dose activation (cAMP increase), actives largely listed as activators; hit rate 0.13% among 340,000; AID 624287, 2012; active = well fitted activation curve with a large enough effect; inconclusive = small, poorly fitted or top-dose-only effect, or another doubt; inactive = no such curve, though single readings can be large or run the other way; cell line not stated here;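 further: phosphodiesterase inhibitor Ro 20-1724 added with compounds to block cAMP breakdown; potency means the concentration at half of the fitted maximal effect; nearly all actives have a fitted effect of over 60% in size; about a fifth of the inactives were tested at one dose only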
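Cells stably selected in G418 were plated at 2000/well, grown 16-24 hr, then given compounds in DMSO with the PDE inhibitor […] (300 uM solution added) for 30 min at 37C; cAMP was read by HTRF.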
D2 agonist: Beta-Arrestin HTS for Positive Allosteric Modulators of the Human D2 Dopamine Receptor: Agonists. D(2) dopamine receptor (Homo sapiens), P14416. DiscoveRx PathHunter D2 beta-arrestin, luminescence, 90 min; 100% = 57 uM dopamine signal. activation, % (no concentration beside the values). hit rate 0.084% among 360,000. AID 624465, 2012; in the data active = activation above about 40%; inconclusive = about 15% to 40%; inactive = below about 15%; further: compound concentration not given in the record; the text of the record calls up to 30% inactive
Target sequence (P14416 whole entry, looked up): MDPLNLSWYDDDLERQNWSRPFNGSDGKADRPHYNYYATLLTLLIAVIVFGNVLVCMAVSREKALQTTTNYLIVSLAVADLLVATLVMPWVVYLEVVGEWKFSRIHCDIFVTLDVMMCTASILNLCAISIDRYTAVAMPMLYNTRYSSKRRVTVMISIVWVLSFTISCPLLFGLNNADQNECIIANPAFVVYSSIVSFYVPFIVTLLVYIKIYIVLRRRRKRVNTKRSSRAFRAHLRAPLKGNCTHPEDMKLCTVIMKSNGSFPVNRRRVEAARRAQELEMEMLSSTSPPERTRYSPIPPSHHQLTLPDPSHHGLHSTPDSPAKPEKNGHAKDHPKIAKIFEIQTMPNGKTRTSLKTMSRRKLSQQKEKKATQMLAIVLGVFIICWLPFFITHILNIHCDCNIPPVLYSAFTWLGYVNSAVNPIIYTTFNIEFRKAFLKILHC
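DiscoveRx PathHunter D2 beta-arrestin cells (2,100/well) attached overnight, then compound-stimulated 90 min at 37 C in HBSS/10 mM HEPES/0.1% Tween-20 buffer; beta-galactosidase complementation read by luminescence after 1 h at ambient temperature. Dopamine 57 uM final (EC100) as control.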
gsp antagonist: qHTS for Antagonists of gsp, the Etiologic Mutation Responsible for Fibrous Dysplasia/McCune-Albright Syndrome: qHTS; hit rate 0.4% among 340,000; Potency, µM (highest dose often 76.9 µM), without a hit: at the highest dose activity change, negative = inhibition, hits mostly inhibitors; gsp-mutant cells, cAMP HTRF, 30 min; control for the full effect not named in the record; active = falling curve of any shape with a large fitted effect; inconclusive = falling curve, mostly with a smaller effect; inactive = flat or rising curve; cell line not stated here;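 further: intracellular cAMP measured with PDE inhibitor Ro 20-1724 present during compound exposure; potency means the concentration at half of the fitted maximal effect; on the % scale 0 is the no-effect control and ±100 the full control effect; nearly all actives have a fitted effect of over 65% in size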
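HTRF cAMP read-out (cAMP-d2 plus anti-cAMP antibody-K in lysis buffer, 30 min RT). Before lysis, cells are exposed to compounds with […] for 30 min at 37C in DPBS containing Ca/Mg, BSA and Tween 20.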
PINK1 expr mod: A Quantitative High throughput Screen to Identify Chemical Modulators of PINK1 Expression | PINK1 immunofluorescence, high-content cytometry, 24 h | Potency, µM (highest dose often 76.6 µM), for inactives: at the top dose activation (PINK1 increase), most hits filed as activators | hit rate 0.2% among 410,000; active = well fitted activation curve with a large enough effect; inconclusive = small, poorly fitted or top-dose-only effect; inactive = flat fitted curve, though single readings scatter; cell line not stated here;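 further: potency means the concentration at half of the fitted maximal effect; % of control where 0% means no effect; nearly all actives have a fitted effect of over 65% in size; a mitochondrial uncoupler was the plate control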
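Decision-based qHTS: stable cells, 24 h exposure to five compound concentrations, CCCP as control. Fixed cells stained for PINK1 plus nuclear, mitochondrial and cell markers, cytometer read.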
Active calls of the source: *; ? = inconclusive; / = not tested or not shown; [ ] = another dose, or the depositor's remark.

SMILES	Sfp inh	Menin-MLL FL inh	ClpP mod	gsp ag	D2 agonist	gsp antagonist	PINK1 expr mod
CN(C)S(=O)(=O)c1ccc(N2CCCC2)c(C(=O)NCc2ccccc2)c1	16%	2.5	-3.5%	-6%	-2.1	-11%	-0.7%
C[C@@H]1CN([C@@H](C)CO)C(=O)c2cccc(NC(=O)C3CCCCC3)c2O[C@@H]1CN(C)Cc1ccc(Cl)c(Cl)c1	/	/	-2.8%	/	1.4	-21%	10%
Cc1ccc2cc(CN(CCCO)S(=O)(=O)c3ccccc3F)c(=O)[nH]c2c1C	12%	-1.3	-9.9%	-3%[15.4 µM]	-2.2	-11%	0.5%
CC12CCC(=O)N1C(C(=O)Nc1cc(C(F)(F)F)ccc1N1CCOCC1)CS2 (centres undefined)	/	/	2.1%	-57%[inhibitor]	-2.5	-1%	7.4%
N#Cc1ccccc1NC(=O)CSc1nccn1CCc1ccccc1	-1%	-2.0	-1.0%	?	-0.8	-7%	11%[38.3 µM]
CC(C)CCN1CCN(C2CSCCSC2)CC1CCO (centres undefined)	7%	-1.0	-3.5%	14%	-4.2	7%	2.3%
O=C(NCc1ccncc1)C1Cc2c(-c3ccccc3Oc3ccccc3)ccnc2O1 (centres undefined)	/	/	-5.2%	/	?	/	-1.2%
COc1ccccc1NC(=O)CNc1ccc(F)c(Cl)c1	-4%	4.1	-1.7%	?	-1.7	7%	3.8%
COCC1CCN(Cc2cn(-c3ccccc3F)nc2-c2cc(C)sc2C)CC1	3%	-2.3	/	-5%[15.4 µM]	-7.2	2%	5.2%
Nc1ccn(C(C=O)CC(C=O)CO)c(=O)n1 (centres undefined)	/	/	-3.6%	/	3.8	/	0.5%
CCCCCc1ccc(OCCC[n+]2ccccc2)c(CCCCC)c1	16µM*	3.3	0.2%	9%[15.4 µM]	-8.5	-12%	-3.8%
O=C(CNC(=O)c1ccc(S(=O)(=O)N2CCCC2)cc1)N/N=C/c1ccc(Cl)cc1	-2%	-15	0.9%	6%	-0.9	-3%	4.4%
O=C(O)c1ccc(-c2sc(Nc3ccccc3)n[n+]2-c2ccc(F)cc2)cc1	-14%	2.6	-0.3%	/	-1.0	4%	0.2%
O=C1NC2=C(C(=O)c3ccccc32)C(c2ccccc2)N1 (centres undefined)	9%	-0.1	-7.4%	-10%	-2.5	-4%	/
Cc1cc(N)n(-c2cc(C)c3ccccc3n2)n1	6%	-2.1	/	16%	-0.2	6%	-1.8%
CN1C[C@@H]2[C@@H]3C(=O)N(C)C(=O)[C@@H]3[C@](C)(C1=O)N2C(=O)c1ccc(Cl)c(Cl)c1	/	/	1.2%	/	0.7	11%	0.3%
COC(=O)c1ccc(/C=C/c2ccc3cccc(OC)c3n2)cc1	45µM*	-1.4	13µM*	?	-0.9	0%	4.7%
O=C(CCCNS(=O)(=O)c1cccc2nsnc12)NCc1ccc(Cl)cc1	-3%	2.4	1.7%	?	-3.0	-14%	-1.5%
O=C(Nc1ccc(Cl)cc1)Nc1cccnc1	12%	0.3	-28%	8%	0.1	-9%	3.1%[38.3 µM]
CCN1C(=O)[C@H]2[C@@H](c3ccc(-c4ccc(OC)cc4)cc3)N[C@@](Cc3ccccc3)(C(=O)OC)[C@H]2C1=O	/	/	1.1%	/	0.4	-17%	2.3%
C/C(=N\Nc1nc(Cl)c(Cl)cc1Cl)c1ccc(S(=O)(=O)NCc2ccco2)cc1	-15%	5.6	-1.2%	6%	-3.7	-14%	2.5%
Cc1ccc(NC(=O)c2cc3c(s2)CCCC3)cc1	-5%	-2.5	/	2%[15.4 µM]	0.8	-21%	4.4%
COc1ccc(OCCC(=O)OCC(=O)NC(=O)NC2CCCCC2)cc1	14%	/	20µM*	-5%[15.4 µM]	2.4	-11%	2.0%
O=C(CSc1nc2ccccc2[nH]1)c1c[nH]c2ccccc12	?	-1.6	/	13%[15.4 µM]	-2.6	3%	8.7%
O=C(O)c1ccc(NC(C(=O)c2ccccc2)c2ccccc2)cc1 (centres undefined)	/	/	/	26%	-1.6	-14%	-0.2%
More records follow.
SMILES	Sfp inh	Menin-MLL FL inh	ClpP mod	gsp ag	D2 agonist	gsp antagonist	PINK1 expr mod
O=C(Cn1cc(COc2ccc(Br)cc2)nn1)c1ccc(O)cc1	/	/	-2.8%	/	0.3	-5%	4.5%
CC(C)Cc1nnc(NC(=O)c2ccc(N3CCCC3=O)cc2)s1	/	/	-10%	-63%[inhibitor]	0.9	-2%	-4.0%
CCN(CC)C(=O)C1CCN(Cc2cccc(OCc3ccccc3)c2)CC1	-5%	3.6	-2.0%	-28%	-2.5	5%	0.5%
COc1ccccc1C/C(N)=N/OC(=O)COc1cc(C)cc(C)c1C	-4%	-4.5	-4.0%	-24%	-2.3	9%	7.6%
Cc1ccc(-n2cnc3c(=O)[nH]cnc32)cc1	/	/	/	?	-1.5	9%	0.0%
Cc1ccnn1CCC(=O)N1CCCC(Nc2ccc(C(C)C)cc2)C1 (centres undefined)	/	/	0.3%	11%	-0.3	/	0.1%
Cc1ccc(C)c(S(=O)(=O)N2CCCOC2CNC(=O)C(=O)NC2CCCC2)c1 (centres undefined)	23%	/	1.4%	-2%[15.4 µM]	-4.4	16%	1.7%
O=C(c1ccc(CS(=O)c2cccc(Cl)c2)o1)N1CCN(c2ccccn2)CC1 (centres undefined)	5%	-2.0	-3.2%	-3%	7.8	6%	6.9%
C=CCNc1ncnc2c1cnn2-c1ccc(OC)cc1	13%	9.2	-23%	2%	-0.3	0%	-34%[inhibitor][38.3 µM]
O=C(CN1C(=O)COc2ccccc21)NCc1ccc(C(=O)O)cc1	7%	-0.6	0.0%	11%	-3.2	12%	?
NC(=O)C1(N2CCCCC2)CCN(C2CC(=O)N(Cc3cccs3)C2=O)CC1 (centres undefined)	13%	-0.1	-0.6%	-3%	-3.0	7%	0.5%
O=C(NCc1ccncc1)C(=O)N/N=C/c1ccc(OCc2ccccc2)cc1	-5%	-3.1	/	-1%[15.4 µM]	4.3	1%	5.7%
COC(=O)[C@@]1(Cc2ccc(F)cc2)[C@H]2c3cc(C(=O)N(C)C)n(C[C@H](O)CO)c3C[C@H]2CN1C(=O)c1ccccc1	8%	2.3	0.1%	2%	0.5	6%	0.0%
CC(C)C[C@@H](CN1C(N)=NC[C@@H]1C)NC(=O)CC12CC3CC(CC(C3)C1)C2	/	/	1.1%	-39%[inhibitor]	-2.8	9%	-0.8%
CCc1ccc(C(N)=S)cc1	-13%	-2.5	/	-1%	-2.3	14%	-0.9%
CCCN1C(=O)c2[nH]nc(-c3cc(Cl)c(C)cc3O)c2C1c1ccc(O)c(OC)c1 (centres undefined)	-26%	2.7	1.8%	-27%	7.8	0%	-0.2%
COc1ccc(CCNC(=O)CSCc2ccc(Br)cc2)cc1OC	9%	-1.5	0.8%	-6%	-2.5	-3%	0.0%
COc1ccc(C(O)c2ncc(-c3ccccc3C)[nH]2)cc1 (centres undefined)	/	/	0.2%	/	-7.5	/	0.6%
O=C(CN1C(=O)C(=O)N(C2CCCC2)C1=O)NCCc1ccc(F)cc1	/	/	/	-14%	-1.7	-5%	2.9%
O=C(N/N=C/c1cc([N+](=O)[O-])ccc1O)C1CCCCC1	22%	4.1	0.9%	-43%[inhibitor]	-6.1	-4%	-1.7%
CC(C)(C)C(=O)CCN1C(=O)C2(OCCO2)c2ccccc21	3%	-1.5	0.9%	-1%	-1.1	3%	2.9%
COc1ccc(CC(=O)Nc2cccc3c2CCCC3)cc1	20%	1.2	-1.6%	?	3.4	5%	1.6%
Nc1cc(C(=O)OCC(=O)N2CCN(C(=O)COC(=O)c3ccc(Cl)c(N)c3)CC2)ccc1Cl	/	/	-8.1%	9%	-0.5	-8%	-1.0%
OCCNC(=S)Nc1cc(Cl)cc(Cl)c1	7%	2.9	/	-5%[15.4 µM]	-5.3	3%	0.9%
COc1ccc(Cn2c(=O)oc3ccc(C)cc32)cc1	8%	0.2	/	3%	1.2	4%	1.0%
Other structures follow.
SMILES	Sfp inh	Menin-MLL FL inh	ClpP mod	gsp ag	D2 agonist	gsp antagonist	PINK1 expr mod
c1ccc(OCC2CCNCC2)nc1	-5%	2.4	0.7%	20%	-3.0	6%	2.6%
Cc1nnc(CN(C)C(=O)CC2C(=O)NCCN2Cc2ccccc2C)o1 (centres undefined)	5%	-12	-6.0%	0%	1.6	14%	0.1%
Cc1nc2c(OCc3ccc(C(F)(F)F)cc3)cccn2c1N(C)C(=O)CCC1CCCC1	/	/	-10%	/	9.5	/	-1.6%
CN(C)c1ccc(/C=C(/NC(=O)c2ccccc2Cl)C(=O)NCCN2CCOCC2)cc1	10%	8.7	-3.6%	7%	5.7	?	0.5%
Cc1ccc(NC(=O)c2cc(S(=O)(=O)N3CCCCC3)c[nH]2)cc1C	-4%	-0.2	-8.1%	?	-2.1	-29%	3.8%
Cc1ccc(N(C(=O)C2CCC(=O)N2)C2(C(=O)NC3CCCC3)CCCCC2)cc1 (centres undefined)	9%	-0.1	-0.4%	-12%	-0.6	-3%	-5.6%
O=C(c1ccc2c(c1)OCO2)N1CCCC(c2ccccc2)C1 (centres undefined)	4%	2.5	1.6%	16%	1.6	-15%	-1.6%

Pulled by structure from the list above (2):
SMILES	Sfp inh	Menin-MLL FL inh	ClpP mod	gsp ag	D2 agonist	gsp antagonist	PINK1 expr mod
Cc1nnc(CN(C)C(=O)CC2C(=O)NCCN2Cc2ccccc2C)o1 (centres undefined)	5%	-12	-6.0%	0%	1.6	14%	0.1%
c1ccc(OCC2CCNCC2)nc1	-5%	2.4	0.7%	20%	-3.0	6%	2.6%

Bioassay records from PubChem.
